LANA-H2B inh = blocks KSHV LANA binding to histone H2A/H2B | Q9QR71 | cell-free LANA-H2A/H2B peptide, fluorescence polarization | inhibition, % (no concentration beside the values) | 320,000 compounds, 0.6% hits | AID 2629; in the data active means inhibition mostly above about 10%, no sharp cut-off; inactive means mostly below about 6.7%;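 further: stock transfer was 7.5 nL into about 10 µL; 0% = median of vehicle wells and 100% = median of positive control wells; one replicate is shown; the record names a cut of 25% in any replicate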
Target sequence (Q9QR71 whole entry, looked up): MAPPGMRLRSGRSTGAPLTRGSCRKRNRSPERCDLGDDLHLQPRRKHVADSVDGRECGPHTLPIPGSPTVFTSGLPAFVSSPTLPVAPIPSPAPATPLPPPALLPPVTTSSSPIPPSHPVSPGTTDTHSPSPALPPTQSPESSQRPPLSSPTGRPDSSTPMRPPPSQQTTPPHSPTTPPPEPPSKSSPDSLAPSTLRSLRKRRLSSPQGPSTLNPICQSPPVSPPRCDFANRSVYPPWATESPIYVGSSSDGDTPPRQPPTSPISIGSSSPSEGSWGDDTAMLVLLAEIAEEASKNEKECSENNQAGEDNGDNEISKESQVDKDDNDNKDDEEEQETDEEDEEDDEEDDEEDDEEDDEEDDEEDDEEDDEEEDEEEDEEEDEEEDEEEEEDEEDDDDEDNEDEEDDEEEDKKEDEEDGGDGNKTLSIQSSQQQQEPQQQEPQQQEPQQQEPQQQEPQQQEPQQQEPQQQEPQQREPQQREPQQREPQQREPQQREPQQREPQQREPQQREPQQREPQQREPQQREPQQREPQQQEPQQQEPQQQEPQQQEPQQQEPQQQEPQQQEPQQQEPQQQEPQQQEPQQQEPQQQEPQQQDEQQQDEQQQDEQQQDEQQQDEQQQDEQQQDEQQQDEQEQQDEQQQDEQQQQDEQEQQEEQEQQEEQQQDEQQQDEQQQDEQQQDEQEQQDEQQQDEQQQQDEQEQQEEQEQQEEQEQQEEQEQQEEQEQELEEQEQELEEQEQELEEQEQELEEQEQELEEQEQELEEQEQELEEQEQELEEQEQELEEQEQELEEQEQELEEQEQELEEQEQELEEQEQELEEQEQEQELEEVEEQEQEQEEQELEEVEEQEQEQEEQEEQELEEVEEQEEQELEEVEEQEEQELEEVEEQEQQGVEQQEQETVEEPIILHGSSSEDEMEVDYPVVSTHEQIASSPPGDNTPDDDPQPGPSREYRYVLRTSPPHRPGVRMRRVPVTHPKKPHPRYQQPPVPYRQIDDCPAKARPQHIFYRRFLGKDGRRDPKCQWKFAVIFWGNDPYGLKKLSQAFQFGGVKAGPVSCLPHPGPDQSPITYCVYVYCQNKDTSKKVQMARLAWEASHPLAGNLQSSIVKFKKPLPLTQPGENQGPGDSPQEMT
UCH37 inh = blocks the human deubiquitinase UCH37 | 330,000 compounds, 0.33% hits | purified proteasome/UCH37, Ub-AMC cleavage fluorescence | Q9Y5K5 | AID 588478 | inhibition, % (test concentration not listed);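 active means mean of two replicates above 20%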;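 further: 0% = compound-free wells with enzyme and 100% = wells lacking proteasome; stock transfer was 100 nL into about 20 µL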
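Schedule: 30 min plus 25 min, room temperature / Material: human UCH37 within purified proteasomes / Technique: AMC fluorescence intensity at 355/460 nm / Buffer or medium: pH 7.4 Tris-HCl (50 mM) with ovalbumin, ATP-MgCl2, DTT / Controls: wells without proteasome as full block, compound-free enzyme plus substrate as uninhibited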
B2AR ag = human beta-2 adrenergic receptor agonism by FAP; P07550; Am2.2-beta2AR cells, FAP receptor internalization, flow cytometry; reference of the scale not given here; response, % (concentration not given with the values); 340,000 compounds, 0.43% hits; AID 504454;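 active means response above a set limit, near 3 SD of response in nonfluorescent compounds, cut at about 42% in these data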;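 further: stock transfer was 100 nL into about 11 µL; a reference agonist was the positive control; negative values mostly stem from fluorescent compounds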
Calb FLC = affects C. albicans growth with fluconazole; C. albicans CaCi-2 (fluconazole-resistant clinical isolate) + fluconazole, Alamar Blue growth, 48 h; growth inhibition, % (no concentration beside the values); 300,000 compounds, 0.57% hits; AID 1979;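 active means most replicates above 75%; inconclusive means exactly half above 75%; inactive means most below 75%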;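 further: all wells also contain fluconazole at 8 µg/ml as a sub-toxic cotreatment; 0% = median of DMSO wells and 100% = median of geldanamycin control wells; wells of about 8 µL received 7.5 nL stock; the first replicate is given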
A1 inh = inhibitors of the anti-apoptotic protein A1, read as caspase activation. caspase activation, % (test concentration not listed). 330,000 compounds, 0.066% hits. MEF A1-2A-BIM cells, Caspase-Glo 3/7 luminescence, 3 h; percent of clofoctol response, vehicle zero;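 active means over half of replicate activation scores above 10%, or exactly half above 10 with the replicate mean above 10; inconclusive means replicate mean below 10 yet half the replicates above 10; inactive means over half of replicates below 10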;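 further: wells of about 30 µL received 50 nL stock; many hits fall short of the cut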
Beta apoptosis = blocks beta cell apoptosis; INS-1E cytokine-induced death, ATP luminescence, 48 h; percent of positive-control rescue, neutral wells zero; protection from apoptosis, % (test concentration not listed); 300,000 compounds, 0.8% hits;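 active means all replicates at 75% or more, or half of them and the mean; inconclusive means half reach 75% but not the mean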;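 further: 0% = cytokine-treated negative control wells and 100% = positive control rescue; higher means more ATP so stronger rescue from cytokine killing; wells of about 40 µL received 100 nL stock; the first replicate is given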
RanGTP-Impb inh = disruptors of Ran-importin-beta complex formation – biochemical, FRET, CFP-Ran, YFP-importin-beta, homogeneous, primary screen; cell-free CFP-Ran/YFP-importin-beta FRET ratio; inhibition, % (concentration not given with the values); 300,000 compounds, 1.1% hits;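 active means most replicates above 15%; inconclusive means exactly half above 15%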;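 further: 0% = DMSO wells and 100% = Ran loaded with GDP instead of GTP; wells of about 40 µL received 100 nL stock; the first replicate is given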
T cruzi repl = T. cruzi replication inhibition; inhibition, % (test concentration not listed); 300,000 compounds, 1.4% hits; AID 1885; T. cruzi beta-gal in NIH3T3, luminescence, 90 h;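 active means mean inhibition across valid replicates above about 55%, limit read from the data; inconclusive means mean below that limit but half or more replicates reach it; inactive means mean below it, under half of replicates reach it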;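 further: signal also drops with host cell toxicity which is not excluded here; 0% = plate median of DMSO wells and 100% = zero luminescence signal; higher percent means less beta-gal luminescence so fewer parasites; stock transfer was 50 nL into about 50 µL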
* hit, by the source's call. Compounds were not picked by outcome; overall some 4.3% were active at least once.

`CN(C)c1ccc(P(=O)(Nc2ccccc2)N2CCOCC2)c(NC(=O)c2cccs2)c1` (stereo not given) gave LANA-H2B inh 1.5, UCH37 inh -15, B2AR ag -11, Calb FLC -4, A1 inh 0.8, RanGTP-Impb inh 0.1 and T cruzi repl 25.
CCOC(=O)N1CCN(S(=O)(=O)c2c(C)[nH]c(=O)[nH]c2=O)CC1 was read as LANA-H2B inh 2.4, UCH37 inh 5.1, B2AR ag -7, Calb FLC -25, A1 inh 0.9, Beta apoptosis -4, RanGTP-Impb inh inconclusive and T cruzi repl -10.
CCOc1ccc(CN2CCNC(=O)C2CC(=O)NCCc2ccccn2)cc1 (stereo not given) was read as LANA-H2B inh -3.9, UCH37 inh -1.6, B2AR ag 3, Calb FLC -13, A1 inh -4.4, Beta apoptosis -12, RanGTP-Impb inh -0.2 and T cruzi repl -1.
Cc1ccc(S(=O)(=O)N2CCCN(S(=O)(=O)c3ccc(C)cc3)CC2)cc1 was read as LANA-H2B inh 0.7, UCH37 inh 3.2, B2AR ag 2, Calb FLC -8, A1 inh -0.9, Beta apoptosis -2, RanGTP-Impb inh inconclusive and T cruzi repl 0.
For CCn1c(=O)cc(OCC(=O)Nc2ccccc2C#N)c2ccccc21 the results were LANA-H2B inh 2.3, UCH37 inh 1.0, B2AR ag -16, Calb FLC -2, A1 inh -0.1, Beta apoptosis 1, RanGTP-Impb inh -1.7 and T cruzi repl -4.
Screening O=C(NCc1ccco1)c1ccc(COCC(F)(F)F)cc1 returned LANA-H2B inh 3.3, UCH37 inh 0.5, B2AR ag -1, Calb FLC 9, A1 inh -0.5, Beta apoptosis -2, RanGTP-Impb inh inconclusive and T cruzi repl 0.
For Cc1ncsc1CCOC(=O)C12CC3CC(CC(C3)C1)C2 the results were LANA-H2B inh 2.2, UCH37 inh 5.2, B2AR ag 0, Calb FLC -35, A1 inh 0.4, Beta apoptosis 1, RanGTP-Impb inh 1.3 and T cruzi repl -9.
For CCOC(=O)N1CCC(Nc2c(-c3ccc(C)cc3)c(=O)c2=O)CC1 the results were LANA-H2B inh 2.0, UCH37 inh 11, B2AR ag 2, Calb FLC -7, A1 inh 0.7, Beta apoptosis -10, RanGTP-Impb inh 3.6 and T cruzi repl 5.
`CC1CCCCN1S(=O)(=O)c1ccc(C(=O)Nc2nnc(-c3ccncc3)o2)cc1` (stereo not given) gave LANA-H2B inh 1.4, UCH37 inh 3.6, B2AR ag 4, Calb FLC 21, A1 inh 0.7, Beta apoptosis 15, RanGTP-Impb inh 8.9 and T cruzi repl -53.
For O=C(NC(=S)NNS(=O)(=O)c1ccccc1)c1cccnc1 the results were LANA-H2B inh 0.6, UCH37 inh 0.7, B2AR ag 6, Calb FLC -40, A1 inh 0.6, Beta apoptosis -3, RanGTP-Impb inh 3.1 and T cruzi repl -3.
O=C(CSc1nc2ccccc2[nH]1)N1CCN(c2ccccc2)CC1 was read as LANA-H2B inh 7.3, UCH37 inh 4.8, B2AR ag -14, Calb FLC -6, A1 inh 0.2, Beta apoptosis 2, RanGTP-Impb inh -1.2 and T cruzi repl 12.
`CCOC(=O)c1cc(-c2ccc(/C=C3/C(=O)NC(=O)C(C#N)=C3C)o2)ccc1Cl` gave LANA-H2B inh 5.9, UCH37 inh 22*, B2AR ag 17, Calb FLC 26, A1 inh -0.3, Beta apoptosis -1, RanGTP-Impb inh -4.6 and T cruzi repl -5.
`CCOC(=O)N1CCC(NC(=O)C2CCCN2C(=O)OCc2ccccc2)CC1` (stereo not given) gave UCH37 inh 1.2, B2AR ag 7, Calb FLC 6, A1 inh -0.1, Beta apoptosis -1, RanGTP-Impb inh -2.7 and T cruzi repl -10.
Fc1ccc(NC(=S)Nc2cc(-c3ccccc3)[nH]n2)cc1Cl was read as LANA-H2B inh 0.0, UCH37 inh 3.2, B2AR ag -2, Calb FLC 11, A1 inh 0.6, Beta apoptosis 1, RanGTP-Impb inh -2.3 and T cruzi repl 34.
For N#C/C(=C/c1cccc(O)c1)C(=O)NCc1ccc(Cl)cc1 the results were LANA-H2B inh -2.6, UCH37 inh -2.0, B2AR ag 17, Calb FLC 4, A1 inh 0.2, Beta apoptosis -24, RanGTP-Impb inh -1.3 and T cruzi repl -6.
For Cc1csc2c(N(C)CCO)ncnc12 the results were LANA-H2B inh -1.0, UCH37 inh 3.0, B2AR ag -11, Calb FLC 6, A1 inh 0.7, Beta apoptosis 1, RanGTP-Impb inh 4.7 and T cruzi repl -1.
For O=[N+]([O-])CC(c1ccc(F)cc1)c1c[nH]c2ccccc12 (stereo not given) the results were LANA-H2B inh 2.7, UCH37 inh 3.4, B2AR ag -10, Calb FLC -1, A1 inh -0.1, Beta apoptosis -5, RanGTP-Impb inh -1.5 and T cruzi repl -5.
Screening CC(O)CNc1nc2ccccc2n1CC(=O)N1CCN(Cc2ccccc2)CC1 (stereo not given) returned LANA-H2B inh 0.2, UCH37 inh -0.4, B2AR ag 1, Calb FLC inconclusive, A1 inh -0.5, Beta apoptosis 7, RanGTP-Impb inh -0.9 and T cruzi repl -22.
CC(=O)Nc1ccc(OCc2ccc(S(=O)(=O)Cc3ccccc3)cc2)cc1 was read as LANA-H2B inh 7.6, UCH37 inh 1.6, Calb FLC 19, A1 inh -0.2, Beta apoptosis 1, RanGTP-Impb inh inconclusive and T cruzi repl 7.
`COC(=O)Cc1ccc(OC(=O)C2CCN(S(=O)(=O)c3ccc(OC)c(OC)c3)CC2)cc1` gave LANA-H2B inh 1.7, UCH37 inh -0.1, B2AR ag 2, A1 inh 1.3 and Beta apoptosis -2.
Cc1ccc(CNC(=O)COC(=O)[C@@H]2CC(O)CN2S(=O)(=O)c2ccc3c(c2)OCCO3)cc1 (stereo not given in full) was read as LANA-H2B inh -0.2, UCH37 inh 1.6, B2AR ag 12, Calb FLC -7, A1 inh -0.1, Beta apoptosis 0, RanGTP-Impb inh -2.9 and T cruzi repl -4.
Screening CCCc1c(C(=O)N/N=C/c2cccnc2)nnn1-c1nonc1N returned LANA-H2B inh -0.6, B2AR ag -8, Calb FLC -4, A1 inh 0.0, Beta apoptosis -4, RanGTP-Impb inh -2.1 and T cruzi repl -5.
Screening COc1ccc2nc(NC(=O)c3cccc(-c4cc5ccccc5oc4=O)c3)sc2c1 returned LANA-H2B inh -3.8, UCH37 inh -42, B2AR ag 15, Calb FLC -7, A1 inh -0.4, Beta apoptosis 24, RanGTP-Impb inh -0.6 and T cruzi repl 25.
Screening CCCCNc1c(C(=O)OCC)c(=O)[nH]c2ccccc12 returned LANA-H2B inh 4.7, UCH37 inh 2.9, B2AR ag -5, Calb FLC -3, A1 inh -0.6, Beta apoptosis -8, RanGTP-Impb inh -0.8 and T cruzi repl 9.

The closing 4 entries of the part before open the next one.
Cc1ccc(CNC(=O)COC(=O)[C@@H]2CC(O)CN2S(=O)(=O)c2ccc3c(c2)OCCO3)cc1 (stereo not given in full) was read as LANA-H2B inh -0.2, UCH37 inh 1.6, B2AR ag 12, Calb FLC -7, A1 inh -0.1, Beta apoptosis 0, RanGTP-Impb inh -2.9 and T cruzi repl -4.
Screening CCCc1c(C(=O)N/N=C/c2cccnc2)nnn1-c1nonc1N returned LANA-H2B inh -0.6, B2AR ag -8, Calb FLC -4, A1 inh 0.0, Beta apoptosis -4, RanGTP-Impb inh -2.1 and T cruzi repl -5.
Screening COc1ccc2nc(NC(=O)c3cccc(-c4cc5ccccc5oc4=O)c3)sc2c1 returned LANA-H2B inh -3.8, UCH37 inh -42, B2AR ag 15, Calb FLC -7, A1 inh -0.4, Beta apoptosis 24, RanGTP-Impb inh -0.6 and T cruzi repl 25.
Screening CCCCNc1c(C(=O)OCC)c(=O)[nH]c2ccccc12 returned LANA-H2B inh 4.7, UCH37 inh 2.9, B2AR ag -5, Calb FLC -3, A1 inh -0.6, Beta apoptosis -8, RanGTP-Impb inh -0.8 and T cruzi repl 9.
CC(C)C1=CC(=NS(=O)(=O)c2cccc([N+](=O)[O-])c2)C=C(C(C)C)C1=O was read as LANA-H2B inh -2.5, UCH37 inh 2.6, B2AR ag 3, Calb FLC -3, A1 inh 0.7, Beta apoptosis -8 and RanGTP-Impb inh 3.4.
For Cc1c(C(=O)N(C)c2ccccc2Cl)cnn1-c1ccccc1 the results were LANA-H2B inh 4.3, UCH37 inh 0.3, B2AR ag -4, Calb FLC -7, A1 inh 0.9, Beta apoptosis 2, RanGTP-Impb inh 3.5 and T cruzi repl -9.
For CN(C)c1ccc(C2Nc3ccccc3C(=O)N2CCN2CCNC2=O)cc1 (stereo not given) the results were LANA-H2B inh -3.5, UCH37 inh -7.5, B2AR ag 1, Calb FLC -6, A1 inh 0.3, Beta apoptosis -3, RanGTP-Impb inh 0.2 and T cruzi repl -10.
N#CC1(NC(=O)COC(=O)c2cc(O)c3ccccc3c2O)CCCCC1 was read as LANA-H2B inh 1.4, UCH37 inh -56, B2AR ag 18, Calb FLC 36, A1 inh -1.2, Beta apoptosis -2, RanGTP-Impb inh -0.1 and T cruzi repl 4.
COC(=O)CCC(=O)NC1CC(C)(C)Cc2c1cnn2-c1ccc(F)cc1 (stereo not given) was read as LANA-H2B inh 5.4, UCH37 inh 4.7, B2AR ag -9, Calb FLC 7, A1 inh -0.4, RanGTP-Impb inh 0.7 and T cruzi repl -4.
`COc1ccccc1CNS(=O)(=O)c1c(C)nc2sccn2c1=O` gave LANA-H2B inh 0.5, UCH37 inh -1.6, B2AR ag -5, Calb FLC -1, A1 inh 0.4, Beta apoptosis -5, RanGTP-Impb inh 3.5 and T cruzi repl -18.
`COc1cccc(C(=O)CSc2nnc(-c3ccco3)n2CC2CCCO2)c1` (stereo not given) gave LANA-H2B inh 4.5, UCH37 inh -0.7, B2AR ag -12, Calb FLC -1, A1 inh 0.2, Beta apoptosis 2, RanGTP-Impb inh 1.3 and T cruzi repl 9.
COc1ccc(OC)c(-c2nn(-c3ccccc3)cc2C(=O)NCC(c2ccco2)N2CCCC2)c1 (stereo not given) was read as LANA-H2B inh -1.9, UCH37 inh 0.9, B2AR ag -1, A1 inh -1.4 and Beta apoptosis -7.
For CC1CCN(C(=S)c2cccc([N+](=O)[O-])c2)CC1 the results were LANA-H2B inh -4.1, UCH37 inh 4.7, B2AR ag -9, Calb FLC -4, A1 inh -0.6, Beta apoptosis 5, RanGTP-Impb inh 3.5 and T cruzi repl 1.
`COc1cccc2sc(NC(=O)c3ccc(Br)s3)nc12` gave LANA-H2B inh -2.0, UCH37 inh -70, B2AR ag -8, Calb FLC -5, A1 inh -2.4, Beta apoptosis 18, RanGTP-Impb inh 5.3 and T cruzi repl 10.
Screening Cc1ccc(-c2noc(N=O)c2NO)cc1 returned LANA-H2B inh -2.5, UCH37 inh 5.9, B2AR ag 14, Calb FLC 28, A1 inh 0.4, Beta apoptosis 0, RanGTP-Impb inh -0.3 and T cruzi repl -3.
For O=C(CNC(=O)c1ccc2c(=O)n3c(nc2c1)CCC3)Nc1ccc(F)c(F)c1 the results were LANA-H2B inh -5.0, UCH37 inh 6.2, B2AR ag -19, Calb FLC 0, A1 inh -0.6, Beta apoptosis -2, RanGTP-Impb inh -0.4 and T cruzi repl -5.
